Insulin prom inh: TRM-6 insulin promoter activity inhibition; AID 1273; 130,000 tested, 0.9% active; TRM-6 cells (human fetal islet line), insulin promoter-eGFP reporter, imaging; reporter expression induced with tamoxifen; inhibition, % at 2 µM;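 active means inhibition above the mean plus 3 SD, with well images judged a real hit on visual review, cut at about 60% in these data, passing the limit was not always enough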
GALR2 ag: GALR2 (human) receptor agonism; activation, %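 (tested at 5 µM)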; AID 803; GALR2-expressing cells, agonist activation read-out; 140,000 tested, 0.48% active;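 active means above mean plus 3 SD of all compounds, about 5% in these data, not always enough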;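 further: 0% = vehicle buffer wells and 100% = reference agonist at full effect; tested in CHO reporter cells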
Target sequence (O43603 whole entry, looked up): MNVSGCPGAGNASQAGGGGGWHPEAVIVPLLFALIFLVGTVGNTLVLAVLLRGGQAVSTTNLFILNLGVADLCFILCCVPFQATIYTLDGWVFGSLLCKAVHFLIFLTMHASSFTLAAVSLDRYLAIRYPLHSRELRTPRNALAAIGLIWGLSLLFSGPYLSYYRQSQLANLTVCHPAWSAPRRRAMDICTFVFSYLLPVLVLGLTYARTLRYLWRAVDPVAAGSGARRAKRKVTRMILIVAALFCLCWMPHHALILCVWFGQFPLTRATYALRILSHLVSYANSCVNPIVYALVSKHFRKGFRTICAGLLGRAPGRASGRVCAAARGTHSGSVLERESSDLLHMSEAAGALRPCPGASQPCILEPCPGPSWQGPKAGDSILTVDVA
RGS16-Gao HTS: regulators of human RGS16-Galphao interaction; bead-based flow cytometry RGS16-Galphao binding, fluorescence; actives lie on both sides; O15492+P09471; binding response (% of control), % at 10 µM; 220,000 tested, 0.38% active;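 active means below 25% or above 175%, edge rows of some plates excepted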;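 further: Galphao activated by GDP with aluminum fluoride before binding; 100% = wells without compound and 0% = beads without RGS; some results beyond the cut were filed as inactive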
Target sequence (O15492 whole entry, looked up): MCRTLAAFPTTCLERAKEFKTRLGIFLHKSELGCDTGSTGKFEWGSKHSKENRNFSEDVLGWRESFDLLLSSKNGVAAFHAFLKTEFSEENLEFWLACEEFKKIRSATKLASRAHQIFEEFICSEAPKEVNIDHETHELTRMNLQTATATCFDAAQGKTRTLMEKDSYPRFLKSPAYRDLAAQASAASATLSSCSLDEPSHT
Target sequence (P09471 whole entry, looked up): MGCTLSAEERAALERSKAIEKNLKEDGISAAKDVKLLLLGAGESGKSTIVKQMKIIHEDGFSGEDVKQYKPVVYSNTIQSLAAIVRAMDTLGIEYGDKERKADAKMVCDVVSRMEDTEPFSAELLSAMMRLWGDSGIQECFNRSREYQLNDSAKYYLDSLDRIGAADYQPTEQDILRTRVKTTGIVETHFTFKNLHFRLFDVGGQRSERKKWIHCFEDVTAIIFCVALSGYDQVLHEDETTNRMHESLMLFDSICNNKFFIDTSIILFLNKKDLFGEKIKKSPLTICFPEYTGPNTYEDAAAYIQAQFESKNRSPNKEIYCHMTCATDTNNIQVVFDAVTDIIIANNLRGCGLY
PKD1 inh: PKD1 (human) kinase inhibition | PKD1 kinase fluorescence polarization assay | inhibition, %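 (about 10 µM by stock and volumes)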 | 200,000 tested, 0.056% active | AID 797;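 active means inhibition of 50% or more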;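 further: controls were vehicle for no effect and a reference inhibitor for full effect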
HSV augment: increases HSV replication in cells; 220,000 tested, 0.005% active; HSV replication augmentation in cells, fold increase; maximum fold increase;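 active means peak rise of 1.5-fold or more in the series; tested in PC3 cells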;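 further: first round at 10 µM; read as green reporter fluorescence; hits show the peak of a series up to 25 µM; 1 = signal of infected wells without compound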
Insulin prom inh cell count: second read-out of Insulin prom inh, no call of its own (marks repeat the call); normalized cell count, %; measured here: cell count, toxicity; reference of the scale not given here;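 cells exposed to compound for 48 h; stained nuclei by imaging scaled within each plate; lower means fewer cells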
HSV augment primary fold: second read-out of HSV augment, no call of its own (marks repeat the call); fold increase; compound at 10 µM; measured here: primary screen fold increase 10 uM; tested in PC3 cells;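 GFP signal in the first replicate; 1 = infected wells without compound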
Starred values were filed as active, the others as inactive; & = joins results of further samples.

Cc1cc(C(F)(F)F)n(-c2ccc(N)cc2)n1 was read as Insulin prom inh 36, RGS16-Gao HTS 105, PKD1 inh -2, HSV augment inactive, Insulin prom inh cell count 125 and HSV augment primary fold 0.96.
For Cc1onc(-c2c(Cl)cccc2Cl)c1NC(=O)N1CCSCC1 the results were RGS16-Gao HTS 84, HSV augment inactive and HSV augment primary fold 0.91.
For O=C1OC(/C(=C\NCc2ccccc2)[N+](=O)[O-])c2ccccc21 (stereo unspecified) the results were RGS16-Gao HTS 95, PKD1 inh -6, HSV augment inactive and HSV augment primary fold 0.88.
For COc1cc(S(=O)(=O)N2CCOCC2)ccc1NC(=O)COC(=O)CC12CC3CC(CC(C3)C1)C2 the results were GALR2 ag -0.5, RGS16-Gao HTS 77, PKD1 inh 3, HSV augment inactive and HSV augment primary fold 0.77.
For COC(=O)CS(=O)(=O)c1ccc(C)cc1 the results were Insulin prom inh 13, RGS16-Gao HTS 103, PKD1 inh -5, HSV augment inactive, Insulin prom inh cell count 158 and HSV augment primary fold 0.94.
For Cc1cc(C)nc(N/N=C/c2c[nH]c3ccccc23)n1 the results were Insulin prom inh -59, RGS16-Gao HTS 107, PKD1 inh 10, HSV augment inactive, Insulin prom inh cell count 79 and HSV augment primary fold 0.75.
CC(=O)N1CCC(N(CCN2CCOCC2)C(=S)Nc2c(C)cccc2C)CC1 was read as Insulin prom inh 11, GALR2 ag -0.1, RGS16-Gao HTS 106, PKD1 inh -4, HSV augment inactive, Insulin prom inh cell count 121 and HSV augment primary fold 1.
Screening O=C(COc1cccc2c1CCN(Cc1ccccc1F)C2=O)N1CCCCC1 returned RGS16-Gao HTS 102, PKD1 inh -4, HSV augment inactive and HSV augment primary fold 0.94.
Screening COc1cc(C(O)P(=O)(OCC(C)C)c2ccc(N(C)C)cc2)cc(OC)c1OC (stereo unspecified) returned RGS16-Gao HTS 98, HSV augment inactive and HSV augment primary fold 1.
`CC(C)COc1ccc(C(=O)N/C(=C/c2cccc([N+](=O)[O-])c2)C(=O)O)cc1` gave RGS16-Gao HTS 103, HSV augment inactive and HSV augment primary fold 1.
Cc1ccc(S(=O)(=O)N(C)c2nonc2C)cc1 was read as Insulin prom inh 42, GALR2 ag -4.0, RGS16-Gao HTS 103, PKD1 inh -6, HSV augment inactive, Insulin prom inh cell count 137 and HSV augment primary fold 0.99.
`Cc1nc(NC(=O)CCl)sc1C(=O)N(C)C` gave RGS16-Gao HTS 98, PKD1 inh 1, HSV augment inactive and HSV augment primary fold 1.
For O=C(CNC(=O)c1ccccc1)OC1CCCCC1 the results were RGS16-Gao HTS 80, PKD1 inh -2, HSV augment inactive and HSV augment primary fold 0.97.
For Cc1ccc(S(=O)(=O)N2C(=O)CCC2C(=O)N2CCN(C)CC2)cc1 (stereo unspecified) the results were Insulin prom inh 50, GALR2 ag -1.9, RGS16-Gao HTS 111, PKD1 inh -3, HSV augment inactive, Insulin prom inh cell count 132 and HSV augment primary fold 0.87.
`O=C(CS(=O)c1ccc(F)cc1)Nc1ccccc1Cl` (stereo unspecified) gave Insulin prom inh -10, RGS16-Gao HTS 95, PKD1 inh -9, HSV augment inactive, Insulin prom inh cell count 138 and HSV augment primary fold 0.99.
`NC1=NN(c2cccc(C(=O)O)c2)C(=O)C1` gave GALR2 ag -0.2, RGS16-Gao HTS 114, PKD1 inh -7, HSV augment inactive and HSV augment primary fold 0.99.
`Cc1ccccc1CSc1nnc([C@@H]2CCCN2)o1` gave RGS16-Gao HTS 100, HSV augment inactive and HSV augment primary fold 0.99.
Screening O=C(NCC(O)c1ccc([N+](=O)[O-])cc1)C1CCCCC1 (stereo unspecified) returned RGS16-Gao HTS 94, PKD1 inh -2, HSV augment inactive and HSV augment primary fold 0.86.
`COc1ccc2c(c1OC)CN(C)CCc1cc3c(cc1C(O)C2)OCO3` (stereo unspecified) gave GALR2 ag -2.2, RGS16-Gao HTS 100, PKD1 inh 10, HSV augment inactive and HSV augment primary fold 1.
Screening Cc1nonc1NC(=O)CSc1nc(C23CC4CC(CC(C4)C2)C3)nc2ccccc12 returned RGS16-Gao HTS 97, HSV augment inactive and HSV augment primary fold 0.55.

The list goes on; it opens with the two that closed the last part.
`COc1ccc2c(c1OC)CN(C)CCc1cc3c(cc1C(O)C2)OCO3` (stereo unspecified) gave GALR2 ag -2.2, RGS16-Gao HTS 100, PKD1 inh 10, HSV augment inactive and HSV augment primary fold 1.
Screening Cc1nonc1NC(=O)CSc1nc(C23CC4CC(CC(C4)C2)C3)nc2ccccc12 returned RGS16-Gao HTS 97, HSV augment inactive and HSV augment primary fold 0.55.
`CCOc1ccc(N(CC(=O)Nc2ccc(OC)cc2)S(=O)(=O)c2c(C)[nH]c(=O)[nH]c2=O)cc1` gave Insulin prom inh 7, RGS16-Gao HTS 104, PKD1 inh 4 and Insulin prom inh cell count 106.
Screening COc1ccccc1C1C2=C(COC2=O)Nc2cc3c(cc21)OCO3 (stereo unspecified) returned Insulin prom inh -146, GALR2 ag 0.1, RGS16-Gao HTS 93, PKD1 inh 1, HSV augment inactive, Insulin prom inh cell count 12 and HSV augment primary fold 0.59.
Screening O=C(Nc1cccc(F)c1)C1CCN(C(=O)c2ccc(Br)cc2)CC1 returned Insulin prom inh -7, GALR2 ag -1.6, RGS16-Gao HTS 104, PKD1 inh -2, HSV augment inactive, Insulin prom inh cell count 149 and HSV augment primary fold 0.89.
COC(=O)c1cc(OC)c(OC)cc1NC(=O)C1CCCO1 (stereo unspecified) was read as Insulin prom inh -9, GALR2 ag -0.8, RGS16-Gao HTS 107, PKD1 inh 3, HSV augment inactive, Insulin prom inh cell count 90 and HSV augment primary fold 0.83.
For COc1ccc(/C(C)=N\Nc2nc(-c3ccc(Cl)cc3)cc(C(F)(F)F)n2)cc1OC the results were GALR2 ag 0.2, RGS16-Gao HTS 99, PKD1 inh -4, HSV augment inactive and HSV augment primary fold 1.
For CN(C[C@H](c1ccccc1)N(C[C@H](Cc1ccccc1)N(CCc1ccccc1)N=O)N=O)N=O the results were RGS16-Gao HTS 95, PKD1 inh 0, HSV augment inactive and HSV augment primary fold 1.1.
For C=CCNC(=S)Nc1c(C(=O)OC)[nH]c2cc(OC)ccc12 the results were RGS16-Gao HTS 100, HSV augment inactive and HSV augment primary fold 0.93.
`CCOC(=O)C1=C(C)NC(C)=C(C(=O)OC)C1c1cccc([N+](=O)[O-])c1` (stereo unspecified) gave Insulin prom inh 33, GALR2 ag -0.5, RGS16-Gao HTS 97&97, PKD1 inh -6, HSV augment inactive, Insulin prom inh cell count 132 and HSV augment primary fold 1.
`COc1ccc2nc(NCCCO)[nH]c2c1` gave Insulin prom inh -338, GALR2 ag -2.7, RGS16-Gao HTS 96, PKD1 inh -2, HSV augment inactive, Insulin prom inh cell count 63 and HSV augment primary fold 1.
For Oc1ccc2c(ccc3[nH]cnc32)c1 the results were RGS16-Gao HTS 99, HSV augment inactive and HSV augment primary fold 0.88.
CN(C)c1ncccc1-c1nc2ccccc2s1 was read as Insulin prom inh -123, RGS16-Gao HTS 96, PKD1 inh -5, HSV augment inactive, Insulin prom inh cell count 110 and HSV augment primary fold 0.96.
Screening COc1ccc(/C=N/OCC(=O)Nc2nc3ccccc3s2)cc1OC returned GALR2 ag 0.0, RGS16-Gao HTS 111, PKD1 inh -7, HSV augment inactive and HSV augment primary fold 0.95.
COc1ccc(OCC(=O)Nc2nc3ccc(NC(C)=O)cc3s2)cc1 was read as RGS16-Gao HTS 116, PKD1 inh -6, HSV augment inactive and HSV augment primary fold 0.97.
Screening CCc1c(C)sc(NC(=O)C2CCCCC2C(=O)O)c1C(N)=O (stereo unspecified) returned Insulin prom inh -258, GALR2 ag -2.6, RGS16-Gao HTS 70, PKD1 inh -6, HSV augment inactive, Insulin prom inh cell count 72 and HSV augment primary fold 1.
`COc1ccc2sc(N(CCN(C)C)C(=O)/C=C/c3cccs3)nc2c1` gave Insulin prom inh 33, RGS16-Gao HTS 100, PKD1 inh -6, HSV augment inactive, Insulin prom inh cell count 92 and HSV augment primary fold 0.66.
For c1ccc2c(c1)OCC(c1nn3cnnc3s1)O2 (stereo unspecified) the results were Insulin prom inh -28, GALR2 ag -1.3, RGS16-Gao HTS 107, PKD1 inh 1, HSV augment inactive, Insulin prom inh cell count 98 and HSV augment primary fold 0.86.
`O=S(=O)(NCCNS(=O)(=O)c1ccc(F)cc1)c1ccc(F)cc1` gave Insulin prom inh 24, GALR2 ag -1.4, RGS16-Gao HTS 95, PKD1 inh 8, HSV augment inactive, Insulin prom inh cell count 68 and HSV augment primary fold 1.
COC(=O)CC(NC(=O)C1CC1)c1ccc2c(c1)OCO2 (stereo unspecified) was read as Insulin prom inh 60, RGS16-Gao HTS 97, PKD1 inh -1, HSV augment inactive, Insulin prom inh cell count 86 and HSV augment primary fold 0.93.
`O=C(Nc1ccc(S(=O)(=O)N2CCOCC2)cc1)c1ccc(Cl)s1` gave GALR2 ag -2.6, RGS16-Gao HTS 99, PKD1 inh -1, HSV augment inactive and HSV augment primary fold 0.65.
For O=C(O)CCn1ncc2ccccc2c1=O the results were RGS16-Gao HTS 101, PKD1 inh -1, HSV augment inactive and HSV augment primary fold 1.
For O=C(COC(=O)c1cccnc1Nc1ccccc1F)NCCN1C(=O)CSC1=O the results were Insulin prom inh -14, GALR2 ag -2.0, RGS16-Gao HTS 102, PKD1 inh 0, HSV augment inactive, Insulin prom inh cell count 78 and HSV augment primary fold 0.92.
`CCS(=O)(=O)Nc1ccc(C(=O)c2ccccc2)cc1` gave Insulin prom inh -31, GALR2 ag -3.0, RGS16-Gao HTS 109, PKD1 inh -2, HSV augment inactive, Insulin prom inh cell count 103 and HSV augment primary fold 0.88.
CCN1C(=O)/C(=C2/Sc3ccc(OC)cc3N2C)SC1=Nc1cccc(O)c1 was read as Insulin prom inh -43, GALR2 ag 0.3, RGS16-Gao HTS 97, PKD1 inh -29, HSV augment inactive, Insulin prom inh cell count 62 and HSV augment primary fold 0.99.
`CCN(CCCNC(=O)CNC(=O)Cn1cnc2ccccc2c1=O)c1ccccc1` gave GALR2 ag -0.2, RGS16-Gao HTS 99, PKD1 inh 2, HSV augment inactive and HSV augment primary fold 0.98.
Screening CCC(=O)Nc1nc2ccc3nc(C)sc3c2s1 returned GALR2 ag -1.1, RGS16-Gao HTS 102, PKD1 inh -28, HSV augment inactive and HSV augment primary fold 1.
Screening CC(C)C1S/C(=N/N=C/c2ccco2)NC1=O (stereo unspecified) returned Insulin prom inh -43, GALR2 ag -0.9, RGS16-Gao HTS 104, PKD1 inh -4, HSV augment inactive, Insulin prom inh cell count 73 and HSV augment primary fold 1.1.
`O=C(c1ccc(=O)oc1)N1CCC(C(O)(c2ccccc2)c2ccccc2)CC1` gave RGS16-Gao HTS 99, HSV augment inactive and HSV augment primary fold 0.95.
c1ccc(C(c2nnnn2Cc2cccs2)N2CCN(C3CCCC3)CC2)cc1 (stereo unspecified) was read as Insulin prom inh -100, GALR2 ag -0.8, RGS16-Gao HTS 99, PKD1 inh -10, HSV augment inactive, Insulin prom inh cell count 73 and HSV augment primary fold 0.99.
`O=C(Cc1ccccc1)N/N=C/c1ccc(OC(=O)/C=C\c2ccco2)cc1` gave Insulin prom inh 0, GALR2 ag -0.1, RGS16-Gao HTS 100, PKD1 inh -2, HSV augment inactive, Insulin prom inh cell count 70 and HSV augment primary fold 0.82.
Screening O=C(CN1CCCCC1)N1c2ccccc2Oc2ccccc21 returned Insulin prom inh 8, GALR2 ag -1.0, RGS16-Gao HTS 111, PKD1 inh 0, HSV augment inactive, Insulin prom inh cell count 133 and HSV augment primary fold 1.
CC1CCN(C(=O)C2CCN(S(=O)(=O)c3cc(Cl)ccc3Cl)CC2)CC1 was read as RGS16-Gao HTS 105, HSV augment inactive and HSV augment primary fold 0.98.
Screening Cc1ccc(C(=O)N/N=C\c2ccc[nH]2)cn1 returned Insulin prom inh -76, GALR2 ag -0.6, RGS16-Gao HTS 102, PKD1 inh 2, HSV augment inactive, Insulin prom inh cell count 141 and HSV augment primary fold 1.1.

Random excerpt: three records from the list
For Cc1ccc(S(=O)(=O)N2C(=O)CCC2C(=O)N2CCN(C)CC2)cc1 (stereo unspecified) the results were Insulin prom inh 50, GALR2 ag -1.9, RGS16-Gao HTS 111, PKD1 inh -3, HSV augment inactive, Insulin prom inh cell count 132 and HSV augment primary fold 0.87.
`O=C(Nc1ccc(S(=O)(=O)N2CCOCC2)cc1)c1ccc(Cl)s1` gave GALR2 ag -2.6, RGS16-Gao HTS 99, PKD1 inh -1, HSV augment inactive and HSV augment primary fold 0.65.
`COc1ccc2nc(NCCCO)[nH]c2c1` gave Insulin prom inh -338, GALR2 ag -2.7, RGS16-Gao HTS 96, PKD1 inh -2, HSV augment inactive, Insulin prom inh cell count 63 and HSV augment primary fold 1.

Screening results (PubChem)
